Screening results from PubChem.
Rango complex inh: inhibitors of Rango-importin beta complex formation; Q14974; Rango CFP/YFP FRET sensor + importin beta, 45 min; Potency, µM (titrated, usually from 92.2 µM), without a hit: top-dose inhibition of complex formation; 340,000 compounds, 0.031% hits; active = rising FRET ratio curve, often small or poorly fitted; inconclusive = mostly compound fluorescence or quenching in the first reads; inactive = flat curves in all reads;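 also: potency is read from the fitted curve at half-maximal effect; 0% = DMSO wells and 100% = buffer wells lacking importin beta; nearly all actives have a fitted effect of over 15% in size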
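FRET biosensor (snurportin 1 IBB flanked by EYFP and cerulean), 50 nM, with compound 5 min, then 0.125 microM importin beta in PBS, 1 mM DTT, 0.02% Tween-20, 0.1% BSA. CFP/YFP ratio read after 45 min at room temperature; pre-read flags interference.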
Rango dissoc inh: prevents RanGTP from dissociating the Rango-importin beta complex; Potency, µM (top dose mostly 46.1 µM), for inactives: top-dose activity change, negative = inhibition; 340,000 compounds, 0.071% hits; O95149+P62826; Biochemical FRET Rango-importin beta, RanGTP-induced dissociation; active means falling FRET ratio curve, often poorly fitted, with flat reads before Ran was added; inconclusive means other falling curves, or compound fluorescence or quenching; inactive means flat or rising ratio curve;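 also: potency is read from the fitted curve at half-maximal effect; % of control where 0% means no effect; nearly all actives have a fitted effect of over 45% in size; -100% = wells without RanGTP and RCC1; the record marks most hits as doubtful in a second field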
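FRET read at 45 min, room temperature: inhibitors block the CFP/YFP signal rise when RanGTP (0.6 uM Ran, 2 mM GTP, 0.2 uM RCC1) frees Rango (0.1 uM) from importin beta (0.25 uM). Pre-read after 5 min compound exposure flags interference.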
GLA inh pH 4.5: inhibitors of human alpha-galactosidase A at pH 4.5; AID 1467; purified enzyme, 4-MU-alpha-Gal fluorescence, pH 4.5; 230,000 tested, under 10 active; activity change, negative = inhibition, % at 105 µM; inconclusive = small, poorly fitted or top-dose-only inhibition, or a rising curve; inactive = flat fitted curve, though single readings scatter; no compound was filed as active;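 also: 0% = full activity with enzyme and -100% = basal without enzyme; dose as in the result columns while the protocol names 77 µM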
Target sequence (P06280 whole entry, looked up): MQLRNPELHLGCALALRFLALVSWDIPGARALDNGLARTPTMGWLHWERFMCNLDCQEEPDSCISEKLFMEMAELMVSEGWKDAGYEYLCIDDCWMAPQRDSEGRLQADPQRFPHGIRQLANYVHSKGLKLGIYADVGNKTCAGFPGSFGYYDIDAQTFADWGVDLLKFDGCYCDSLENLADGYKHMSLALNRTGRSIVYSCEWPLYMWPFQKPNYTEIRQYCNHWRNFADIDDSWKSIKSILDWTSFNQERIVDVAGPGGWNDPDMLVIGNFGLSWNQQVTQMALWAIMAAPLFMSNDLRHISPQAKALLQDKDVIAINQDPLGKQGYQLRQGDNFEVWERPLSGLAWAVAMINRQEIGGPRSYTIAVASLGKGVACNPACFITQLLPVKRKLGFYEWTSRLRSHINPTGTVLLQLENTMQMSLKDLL
miR-21 reporter: raises the signal of a miR-21 reporter; HeLa miR-21 FLuc reporter, luciferase, 48 h; 340,000 tested, under 10 active; Potency, µM (doses to about 38.3 µM), inactives show at the top dose reporter change, positive = more light; active = well fitted rising curve with a large enough effect; inconclusive = small, poorly fitted or top-dose-only effect; inactive = no such curve, though single readings can be large or run the other way;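 also: % of control where 0% means no effect; miR-21 action dims this reporter so a rising signal means less miR-21 action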
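HeLa cells endogenously expressing miR-21, stably carrying CMV-driven firefly luciferase with a downstream miR-21 binding site, 2000 cells/well. Titrations up to approximately 40 uM, 48 hours; luciferase luminescence read.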
Starred values were filed as active, the others as inactive; u = inconclusive; x = not tested or not shown. These rows are one share of the data. The share of hits here may be higher or lower than overall.

canonical_smiles | Rango complex inh | Rango dissoc inh | GLA inh pH 4.5 | miR-21 reporter
CC(CCn1cccn1)NC(=O)c1cc(COc2ccc(F)cc2F)on1 (stereo not drawn) | 1.0% | 34.6% | -3.0 | 3.8%
Cc1nc2sc3c(c2c2nc(-c4ccco4)nn12)CCCC3 | x | x | -6.9 | -0.8%
COc1cc(CNCCSc2nnnn2C)cc(Br)c1OCc1ccccc1 | 5.3% | 1.4% | 3.7 | -9.1%
CCCc1cc(=O)[nH]c(Nc2ccc(O)cc2)n1 | 3.3% | 9.6% | 0.3 | -2.5%
CCOC(=O)C(C(C)=O)c1c(Br)c(O)c(O)c2c(C(=O)c3ccc(C)cc3)coc12 (stereo not drawn) | 3.3% | -3.7% | 3.0 | u
O=S(=O)(Nc1ccc(Br)cn1)c1ccc(Cl)s1 | -1.3% | 1.2% | x | -0.7%
O=C(O)c1ccc(/C=C2\SC(=S)N(NC(=O)c3ccc(Br)cc3)C2=O)cc1 | 2.5% | 2.2% | x | 0.2%
Cc1ccc(S(=O)(=O)NC(=O)NCc2ccccc2)cc1 | 7.5% | 8.5% | 2.7 | -4.2%
COc1ccc(-n2c(O)c(/C=N/n3cnnc3)c3ccccc3c2=O)cc1 | u | u | 5.3 | 0.0%
CN(C(=O)c1ccc2ccccc2c1)c1ccccn1 | 0.5% | 6.5% | x | -27.1%
CC(=O)Nc1ccc(SC[C@H](c2ccccc2)N2CCN(CCc3ccccc3)CCC2=O)cc1 | x | x | -3.7 | 3.7%
O=C(Nc1ccccc1O)c1cc(S(=O)(=O)N2CCOCC2)ccc1Cl | 3.3% | -12.0% | 4.5 | 0.0%
O=C(NCN1CCN(c2ccccc2F)CC1)c1cccnc1 | -2.8% | 0.6% | -8.6 | -1.2%
CCN1CCN(Cc2ccc(NC(=O)c3ccc(C)c(NC(=O)c4nccn4C)c3)cc2C(F)(F)F)CC1 | 0.1% | 12.0% | 0.9 | 0.8%
CCN(CC)CC(=O)Nc1sc2c(c1C(=O)c1ccccc1C)CCC2 | 2.4% | 10.0% | -4.1 | 5.0%
O=C(NC1=NCCS1)c1cc(-c2ccccc2)nn1-c1ccccc1 | 6.5% | -5.6% | 8.4 | 3.8%
CC1CCN(C(=O)COC(=O)CSc2ccc(C(N)=O)cc2[N+](=O)[O-])CC1 | -4.6% | 1.3% | x | x
Cc1cccc(CN2CCN(Cc3ccco3)CC2)c1 | -0.1% | -7.5% | x | -3.8%
Cc1ccc(CN2C(=O)CCC2C(=O)NC2CC2)cc1 (stereo not drawn) | -1.0% | -9.4% | -11.3 | 2.4%
O=C(NC1CCN(C(=S)NCc2ccco2)CC1)C1CCCCC1 | 6.3% | -1.6% | 6.7 | 0.8%
CCN(C(=O)c1ccccc1Cl)c1ccccc1 | 0.3% | 0.6% | 3.1 | -5.2%
NS(=O)(=O)c1ccc(NC(=S)N2CCCC2)cc1 | 0.6% | -19.0% | x | -3.6%
Cc1ccc2c(C)c(C(=O)NCCc3ccco3)oc2c1C | -0.1% | 0.9% | x | -8.7%
CC1(C)CC(=O)C2=C(C1)Nc1cc3c(cc1C2c1ccc(F)cc1)OCO3 (stereo not drawn) | -4.5% | -18.4% | -5.4 | 7.9%
CN(C)C1=NCCN1CCc1cccc(F)c1 | 0.6% | -9.6% | x | 1.4%
Cc1ccc(CNC(=O)CCC2CCCN(C(=O)CCC(F)(F)F)C2)o1 (stereo not drawn) | 3.0% | 4.2% | -2.3 | -0.8%
O=C(COC(=O)/C=C/c1ccco1)NCc1ccccc1 | 1.0% | 3.7% | 2.8 | -3.3%
Cc1ccc(C)c(S(=O)(=O)N2CCCOC2CNC(=O)C(=O)NCc2cccnc2)c1 (stereo not drawn) | -2.4% | 3.6% | 0.8 | 0.8%
O=C(CN(C(=O)Cn1nnc(-c2ccc(F)cc2)n1)c1ccc(F)cc1)NC1CCCC1 | -1.8% | -7.1% | x | 1.7%
Cc1cc(C)n2cc(CSc3ccc(Cl)cc3)nc2n1 | 2.9% | -17.4% | -1.3 | -30.7%

Some of the entries above, reformatted.
Sequence of screens – Rango complex inh | Rango dissoc inh | GLA inh pH 4.5 | miR-21 reporter
> Cc1cccc(CN2CCN(Cc3ccco3)CC2)c1
  -0.1% | -7.5% | x | -3.8%
> Cc1ccc(CN2C(=O)CCC2C(=O)NC2CC2)cc1 (stereo not drawn)
  -1.0% | -9.4% | -11.3 | 2.4%
> O=C(NC1CCN(C(=S)NCc2ccco2)CC1)C1CCCCC1
  6.3% | -1.6% | 6.7 | 0.8%
> CCN(C(=O)c1ccccc1Cl)c1ccccc1
  0.3% | 0.6% | 3.1 | -5.2%
> NS(=O)(=O)c1ccc(NC(=S)N2CCCC2)cc1
  0.6% | -19.0% | x | -3.6%
> Cc1ccc2c(C)c(C(=O)NCCc3ccco3)oc2c1C
  -0.1% | 0.9% | x | -8.7%
> CC1(C)CC(=O)C2=C(C1)Nc1cc3c(cc1C2c1ccc(F)cc1)OCO3 (stereo not drawn)
  -4.5% | -18.4% | -5.4 | 7.9%
> CN(C)C1=NCCN1CCc1cccc(F)c1
  0.6% | -9.6% | x | 1.4%
> Cc1ccc(CNC(=O)CCC2CCCN(C(=O)CCC(F)(F)F)C2)o1 (stereo not drawn)
  3.0% | 4.2% | -2.3 | -0.8%
> O=C(COC(=O)/C=C/c1ccco1)NCc1ccccc1
  1.0% | 3.7% | 2.8 | -3.3%
> Cc1ccc(C)c(S(=O)(=O)N2CCCOC2CNC(=O)C(=O)NCc2cccnc2)c1 (stereo not drawn)
  -2.4% | 3.6% | 0.8 | 0.8%
> O=C(CN(C(=O)Cn1nnc(-c2ccc(F)cc2)n1)c1ccc(F)cc1)NC1CCCC1
  -1.8% | -7.1% | x | 1.7%
> Cc1cc(C)n2cc(CSc3ccc(Cl)cc3)nc2n1
  2.9% | -17.4% | -1.3 | -30.7%

Other entries:
canonical_smiles | Rango complex inh | Rango dissoc inh | GLA inh pH 4.5 | miR-21 reporter
CC(C)(C)c1n[nH]c2c1CCCC2 | 0.5% | 0.3% | 2.9 | -9.8%
CNc1nnc(SCC(=O)N2c3ccccc3NC(=O)CC2C)s1 (stereo not drawn) | -4.3% | 11.5% | x | x
CCCn1nc(C(=O)NC2CCCCCC2)c2ccccc2c1=O | -0.4% | 5.8% | x | x
CCn1c(=O)c2c(nc(SCC(=O)N3CCC(C)CC3)n2C)n(C)c1=O | 1.7% | 24.6% | x | 4.0%
COCCSc1ccccc1C(=O)N1CCCC1 | -1.1% | -8.6% | -5.7 | 0.1%
C=CCN1C(=O)CS/C1=N\S(=O)(=O)c1ccc(Cl)cc1 | -1.9% | -14.0% | -0.1 | -4.4%
Cc1c(Cl)cccc1NC(=O)CN1C(=O)CSc2ncccc21 | x | x | 0.0 | 4.4%
CN(Cc1nc2ccccc2c(=O)[nH]1)Cc1cc(=O)oc2ccc3ccccc3c12 | -5.0% | -15.9% | 9.4 | -4.5%
CCCCn1nnnc1SCC(=O)Nc1ccc2c(c1)OCCO2 | 1.6% | -19.6% | 2.1 | -1.9%
c1ccc(CNCCN2CCNCC2)nc1 | 6.9% | 10.8% | 5.7 | -6.9%
CCOC(=O)/C=C1\SCC(=O)N1Cc1ccc(Br)cc1 | 2.5% | 10.3% | -3.9 | -0.4%
COc1cc(CN(C)CC2CCCN(CCc3ccc(F)cc3)C2)c(Cl)cc1O (stereo not drawn) | -4.1% | -1.1% | x | 1.0%
CCn1cc(C(=O)N[C@@H](CCSC)C(=O)NCCN2CCOCC2)c(=O)c2cc3c(cc21)OCO3 | 0.8% | 8.3% | x | -7.0%
CC(C)(C)NC(=O)C(c1ccco1)N(Cc1ccc2c(c1)OCO2)C(=O)c1snc(C(N)=O)c1N (stereo not drawn) | 0.0% | 6.9% | x | 0.8%
COc1ccc(N(C(=O)c2ccc(Br)o2)C2C=CS(=O)(=O)C2)c(OC)c1 (stereo not drawn) | 1.1% | 5.3% | -1.0 | 6.7%
COc1ccc(NC(=O)c2cc([N+](=O)[O-])nn2Cc2ccccc2)c(C)c1 | -6.9% | -10.6% | -2.1 | -35.2%
COc1cccc(C(=O)OCC(=O)Nc2nnc(-c3ccccc3)o2)c1 | -0.8% | 14.5% | x | x
CCCCc1ccc(NC(=O)CSc2nc(=O)n3cc(C)ccc3n2)cc1 | u | -12.6% | x | x
O=C1NC(=Nc2ccccc2)S/C1=C\c1cccnc1 | -2.8% | -19.9% | -6.6 | 3.0%
C[C@@H]1CN([C@@H](C)CO)C(=O)c2cccc(NC(=O)Nc3ccc4c(c3)OCO4)c2O[C@H]1CN(C)S(=O)(=O)c1cn(C)cn1 | -0.3% | -7.1% | x | x
CCc1ccc(CN2CCC(C(=O)Nc3ccc(-n4nc(C)cc4C)cc3)CC2)o1 | 0.5% | 12.2% | x | 12.3%
CC(C)c1ccc(C2=C(O)c3ccccc3C(=O)C2=O)cc1 | 1.4% | 1.0% | 3.2 | -5.4%
COc1ccc(CCN2CC(C(=O)N(C)CC(=O)Nc3ccc(Cl)c(C(F)(F)F)c3)CC2=O)cc1OC (stereo not drawn) | -1.6% | -9.6% | x | x
COc1cc(NC(=O)CN2C(=O)C(c3ccccc3)=NC23CCCCCC3)cc(OC)c1 | -2.2% | u | -1.1 | 20.3%
CCc1cc2ccc(C)cc2nc1SCC(=O)Nc1cc(OC)c(OC)cc1C(=O)O | 0.5% | -10.3% | -3.5 | -2.3%
COc1ccc(S(=O)(=O)N2CCN(c3ncccn3)CC2)cc1[N+](=O)[O-] | -2.9% | 6.9% | x | 0.9%
COc1cc2ccccc2cc1C(=O)Nc1cc(C)ccn1 | 0.4% | 4.1% | x | -38.4%
Fc1ccccc1N1CCN(CC2CCCCC2)CC1 | -1.3% | 8.7% | x | -7.3%
Clc1ccc2c(c1)c1ccccc1n2CN1CCOCC1 | 0.5% | -13.0% | -7.9 | -7.1%
COc1cc(CCC(=O)Oc2ccc(C(C)=O)cc2)cc(OC)c1OC | -0.4% | 0.0% | -7.2 | 0.8%
Cc1ncsc1C(=O)O | -4.4% | -8.0% | -4.8 | -0.5%
COc1ccc(OC)c(NC(=O)COC(=O)CCS(=O)(=O)c2ccc(Cl)cc2)c1 | 0.6% | 7.8% | x | x
C=CCNC(=O)CNS(=O)(=O)c1ccc(F)cc1 | 0.1% | 7.5% | 1.5 | -12.1%
O=C(O)CSc1ccccc1C(=O)O | 0.0% | 2.7% | 0.3 | 2.2%
Cc1cccc(Cn2c(N3CCN(C)CC3)nc3c2c(=O)n(C)c(=O)n3C)c1 | 3.9% | -11.5% | x | -0.4%
CCOC(=O)N1CCN(C(=O)/C(=C\c2cccs2)NC(=O)c2cccs2)CC1 | -2.0% | 2.3% | 0.1 | 2.4%
CCN(Cc1ccccc1)C(=O)c1oc2ccc(C)cc2c1C | 0.0% | -3.9% | x | -13.2%
Cc1nnc(SCC(=O)N2CCN(S(=O)(=O)c3ccccc3)CC2)s1 | -2.9% | 0.2% | 4.4 | 1.6%
CC(C)(C)c1ccc(-c2n[nH]c(=S)n2-c2ccccc2)cc1 | -0.4% | 0.6% | x | -7.7%
CC1CCN(c2nc3nonc3nc2N2CCC(C)CC2)CC1 | 1.8% | -11.0% | 3.2 | 2.2%
O=C1NC[C@@H](Cc2cccc3ccccc23)N(CC2(c3ccccc3)CC2)C1=O | -3.3% | -21.4% | -28.7 | -1.3%
COCc1cc(C)nc(SCC[N+](C)(C)CC(=O)Nc2ccccc2)c1C#N | 0.3% | 1.0% | 1.2 | 3.9%
Cc1ccc(-c2cn3cccnc3n2)cc1NC(=O)c1cccs1 | 0.6% | -12.3% | -1.7 | -9.3%
CCOC(=O)N1CCC(N(CCN(C)C)C(=S)Nc2ccccc2Cl)CC1 | -3.8% | -0.1% | 0.4 | -2.1%
CCOC(=O)c1ccoc1CN1CCN(S(=O)(=O)c2ccc(C)c(C)c2)CC1 | -1.3% | -1.6% | x | x
CN(CCN1CCOCC1)Cc1nc(-c2ccccc2)no1 | 1.8% | 14.6% | -1.4 | -12.5%
Cc1cc(=O)c(C(=O)OC(C)C(=O)NC(N)=O)nn1-c1ccc(Cl)cc1 (stereo not drawn) | -4.2% | 9.4% | x | 10.6%
